CtBP-E1A blk = CtBP/E1A binding inhibition; actives 0.49% (n = 340,000); activity change, % (test concentration not listed); AlphaScreen GST-E1A/His-CtBP binding, 1536-well; stronger effect = lower value; control for the full effect not named in the record; in the data active means activity change below about -65%; inconclusive means about -30% to -65%; inactive means above about -30%; further: on the % scale 0 is the no-effect control and ±100 the full control effect; compound concentration not given in the record
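GST-E1A and His-tagged CtBP (125 nM each as 5X stock) were preincubated with pin-transferred compound for 2 h at 37 °C in the dark, then glutathione donor and nickel acceptor beads were added for 1 h before AlphaScreen reading.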
Sfp PPTase inh = Sfp phosphopantetheinyl transferase inhibition. AID 1490. actives 3.5% (n = 310,000). Q9F4F7. Potency, µM, for the others: max response, negative = inhibition, hits mostly inhibitors. Biochemical Sfp PPTase activity, qHTS; active means well fitted inhibition curve with a large enough effect; inconclusive means small, poorly fitted or top-dose-only effect, or another doubt; inactive means no such curve, though single readings can be large or run the other way;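 further: the enzyme is Sfp with the accession as filed and its product quenches rhodamine fluorescence; potency means the concentration at half of the fitted maximal effect; 0% = enzyme reaction without inhibitor and -100% = no enzyme wells; top concentration of the series not given in the record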
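With Hepes-Na pH 7.6 buffer containing 10 mM MgCl2, Sfp (15 nM) modified BHQ-2-YbbR (12.5 uM) using rhodamine-CoA (5 uM). Two reads 30 minutes apart at 525/598 nm yielded each well's rate.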
Six1-Eya2 blk = blocks human Six1 binding to Eya2; Q15475+O00167; AlphaScreen GST-Six1/His-Eya2 binding, biochemical; stronger effect = lower value; control for the full effect not named in the record; activity change, % (concentration not given with the values); actives 0.56% (n = 360,000); AID 651725; in the data active = activity change below about -65%; inconclusive = about -30% to -65%; inactive = above about -30%; further: on the % scale 0 is the no-effect control and ±100 the full control effect
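AlphaScreen with GST-Six1 and His-Eya2 (5X mix: 250 nM and 500 nM), glutathione donor and nickel acceptor beads; buffer 50 mM Tris pH 8.0, 300 mM NaCl, 1 mM TCEP; 1 h at 37 C in the dark.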
PINK1 modulator = modulators of PINK1 expression; Potency, µM (titrated, usually from 76.6 µM), inactives show at the top dose activation (PINK1 increase), most hits filed as activators; actives 0.2% (n = 410,000); PINK1 immunofluorescence, high-content cytometry, 24 h; active = well fitted activation curve with a large enough effect; inconclusive = small, poorly fitted or top-dose-only effect; inactive = flat fitted curve, though single readings scatter; cell line not stated here;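 further: potency means the concentration at half of the fitted maximal effect; % of control where 0% means no effect; nearly all actives have a fitted effect of over 65% in size; a mitochondrial uncoupler was the plate control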
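A stable cell line was treated with compounds at 5 concentrations for 24 hours, with CCCP as control. PINK1 levels and mitochondrial localization were measured by immunofluorescence with mitochondrial, cell and nuclear markers after fixation, read by laser-scanning cytometry.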
TRPV1 PAM = potentiators of human vanilloid receptor 1 (TRPV1); actives 0.02% (n = 320,000); Q8NER1; TRPV1-expressing cells, Fluo-8 calcium influx, capsaicin EC20 potentiation; host cell line not named in the record; control for the full effect not named in the record; potentiation, % at 8.33 µM; active means potentiation above 80%; inconclusive means 30% to 80%; inactive means below 30%; further: 0% is about no effect
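Fluo-8 calcium influx in TRPV1-expressing cells, kinetic read (ex 480/em 520 nm). Compound added and read 3 min for agonist activity, followed by capsaicin at EC20 final and 2 min further read for enhancement.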
D2 agonist = activates the human D2 dopamine receptor; P14416; DiscoveRx PathHunter D2 beta-arrestin, luminescence, 90 min; 100% = 57 uM dopamine signal; activation, % (no concentration beside the values); actives 0.084% (n = 360,000); in the data active = activation above about 40%; inconclusive = about 15% to 40%; inactive = below about 15%; further: compound concentration not given in the record; the text of the record calls up to 30% inactive
Target sequence (P14416 whole entry, looked up): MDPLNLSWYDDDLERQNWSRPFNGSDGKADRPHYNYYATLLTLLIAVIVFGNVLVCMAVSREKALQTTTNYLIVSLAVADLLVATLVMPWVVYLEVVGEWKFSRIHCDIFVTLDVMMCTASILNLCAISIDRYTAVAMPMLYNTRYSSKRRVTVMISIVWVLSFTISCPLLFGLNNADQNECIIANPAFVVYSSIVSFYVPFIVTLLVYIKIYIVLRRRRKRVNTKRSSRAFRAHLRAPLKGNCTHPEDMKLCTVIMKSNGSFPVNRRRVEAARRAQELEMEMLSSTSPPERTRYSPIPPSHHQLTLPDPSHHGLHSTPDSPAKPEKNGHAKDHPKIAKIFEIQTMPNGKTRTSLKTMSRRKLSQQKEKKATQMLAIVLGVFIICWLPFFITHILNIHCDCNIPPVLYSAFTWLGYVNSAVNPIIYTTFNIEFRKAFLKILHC
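Agonist mode: compounds alone added to overnight-plated D2 PathHunter cells for 90 min at 37 C, with 57 uM final dopamine (EC100) defining full response. Beta-arrestin recruitment detected by chemiluminescent reagent, read after 1 h at ambient temperature.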
D2 PAM = positive allosteric modulators of human D2 dopamine receptor | P14416 | DiscoveRx D2 beta-arrestin cells, luminescence, 90 min; 100% = 57 uM dopamine signal | potentiation, % (test concentration not listed) | actives 0.23% (n = 360,000) | AID 624464; active = potentiation of 50% or more; inconclusive = 30% to 50%; inactive = 30% or less;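 further: compound concentration not given in the record; tested on top of an EC20 dose of dopamine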
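PathHunter D2 cells, attached overnight at 37 deg C, received compound in DMSO plus dopamine at EC20 (50 nM final) for 90 min at 37 deg C. Beta-arrestin recruitment was read as luminescence after 1 h with detection reagent at ambient temperature.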
* = called active by the depositor; ? = inconclusive; · = no result given; [ ] = another dose, or the depositor's remark.

SMILES	CtBP-E1A blk	Sfp PPTase inh	Six1-Eya2 blk	PINK1 modulator	TRPV1 PAM	D2 agonist	D2 PAM
CCN1C(=O)[C@H]2[C@@H](c3ccc(-c4ccc(F)cc4)c(OC)c3)N3CCC[C@@]3(C(=O)OC)[C@H]2C1=O	-11.6	·	-4.1	2.2%	?	-4.7	-9.2
Cc1ccc(C(=O)NC2CC(C)(C)NC(C)(C)C2)cc1S(=O)(=O)N1CCOCC1	-0.6	·	4.1	-0.3%	·	-2.3	-6.1
O=C1NCCC/C1=N/Nc1ccc(F)cc1	-21.9	12.4%	0.8	0.0%	2.9	-2.9	-11.4
Cc1cc(=O)n2cn[nH]c2n1	4.9	·	-2.4	0.8%	·	2.9	-1.6
O=C(O)c1cc(NCc2cc(O)ccc2O)ccc1O	·	?	·	0.4%	21.7	·	·
S=c1[nH]c2ccccc2n1Cc1ccccc1	-8.8	14.1µM*	1.0	8.8%	5.6	1.9	-2.6
Cc1nc2sc(C(c3ccco3)N3CCC(Cc4ccccc4)CC3)c(O)n2n1 (stereo not given)	1.3	35.5µM*	-8.1	2.1%	-14.3	0.0	-4.7
Cc1cc(C(=O)COC(=O)C2=NNC(=O)CC2)c(C)n1-c1ccccc1	-7.0	1.7%	-3.8	3.1%[38.3 µM]	-8.1	-1.4	-13.8
CCOc1ccccc1-n1c(SCC(=O)Nc2nccs2)nnc1-c1ccoc1C	-0.7	10.1%	-6.7	-0.5%	-17.9	-4.0	-3.7
COc1ccc(CN2CCN(C(=O)C3CCC(CNS(=O)(=O)c4ccc(C)cc4)CC3)CC2)c(OC)c1OC (stereo not given)	-11.5	14.4%	1.3	0.5%	-4.4	-0.8	-7.0
CCOc1ccc(NC(=O)CSc2ccc3nnc(-c4cccnc4)n3n2)cc1	-2.9	10.8%	-18.1	0.3%	-9.4	-2.9	-13.2
COc1ccc(CCc2nnc(CCC(=O)N(C)Cc3ccnc4ccccc34)o2)cc1	2.4	2.1%	0.7	4.8%	-1.1	9.9	3.3
COc1ccc(N(CC(=O)Nc2cccc(C(C)=O)c2)S(=O)(=O)c2ccc(NC(C)=O)cc2)cc1	0.4	-4.6%	-12.0	3.1%	-7.7	-5.7	14.6
CCC1(c2ccccc2)NC(=O)N(CC(=O)Nc2ccc(N3CCOCC3)cc2)C1=O (stereo not given)	-16.4	·	-8.4	1.0%	·	-2.1	-2.7
N=C1SCC(=O)N1c1ccc(Cl)cc1	3.4	6.2%	6.1	-0.8%	-0.9	4.5	-1.0
CCOC(=O)COc1cc(N2C(=O)CSCC2=O)c(Cl)cc1Cl	0.1	-3.8%	2.4	·	-14.5	2.0	9.7
C/C=C(\C)CN1CCN(c2ccccc2F)CC1	5.7	-18.0%	5.3	-2.2%[38.3 µM]	-5.3	10.7	-8.7
CCc1nc2ccc(C(=O)Nc3ccc4c(c3)OCC(=O)N4)cn2c1N(C)Cc1nccn1C	-14.4	·	-16.8	1.0%	·	-2.9	4.5
CC(CC#CCN1CCOCC1)OCCC#N (stereo not given)	2.2	6.1%	2.1	2.0%	13.3	-2.9	-10.0
O=C(COc1ccccc1CNC[C@H]1O[C@@H](n2ccc(=O)[nH]c2=O)[C@H](O)[C@@H]1O)N1CCCCC1	2.3	·	0.0	2.4%	·	7.0	0.5

Compound profiles, as listed above. Values in the order: CtBP-E1A blk | Sfp PPTase inh | Six1-Eya2 blk | PINK1 modulator | TRPV1 PAM | D2 agonist | D2 PAM
C/C=C(\C)CN1CCN(c2ccccc2F)CC1 as listed: 5.7 | -18.0% | 5.3 | -2.2%[38.3 µM] | -5.3 | 10.7 | -8.7
CC(CC#CCN1CCOCC1)OCCC#N (stereo not given) as listed: 2.2 | 6.1% | 2.1 | 2.0% | 13.3 | -2.9 | -10.0
COc1ccc(N(CC(=O)Nc2cccc(C(C)=O)c2)S(=O)(=O)c2ccc(NC(C)=O)cc2)cc1 as listed: 0.4 | -4.6% | -12.0 | 3.1% | -7.7 | -5.7 | 14.6
COc1ccc(CCc2nnc(CCC(=O)N(C)Cc3ccnc4ccccc34)o2)cc1 as listed: 2.4 | 2.1% | 0.7 | 4.8% | -1.1 | 9.9 | 3.3

(continued)
SMILES	CtBP-E1A blk	Sfp PPTase inh	Six1-Eya2 blk	PINK1 modulator	TRPV1 PAM	D2 agonist	D2 PAM
COc1ccc(CNC(=O)CN(Cc2ccco2)C(=O)CNS(=O)(=O)c2ccc(F)cc2)cc1	-1.8	21.9%	-3.4	-0.9%	-3.0	-0.4	-6.9
Cc1noc(C)c1COc1cccc(C(=O)OC(C)C#N)c1 (stereo not given)	-11.8	9.8%	3.0	10.4%	3.4	-1.3	-3.9
COc1ccc(C2CC(=O)C=C3c4ccc(OC)cc4CCC32)cc1 (stereo not given)	15.8	·	2.5	0.5%	·	2.0	-2.5
CC(=O)c1ccc(NC(=S)NCCCN2CCOCC2)cc1	8.2	20.2%	1.2	0.0%	?	3.4	-8.6
COc1ccc(S(=O)(=O)N2CCOCC2)cc1N(C)S(=O)(=O)c1ccc(C)cc1	1.0	1.5%	1.5	3.0%	-17.9	1.1	8.9
CCOC(=O)Cn1cc(C#N)c2ccccc21	4.7	8.5%	4.8	1.4%	8.3	-3.5	-7.7
CC(CNC(=O)c1cc(COc2c(F)cccc2F)on1)Oc1cccnc1 (stereo not given)	·	5.2%	0.1	1.4%	3.0	3.8	-1.1
COc1c(O)cc2oc(-c3ccc(O)c(O)c3)cc(=O)c2c1O	?	50.1µM*	?	0.0%	?	3.1	8.1
COC(=O)[C@@]1(Cc2ccccc2)[C@H]2C(=O)N(C)C(=O)[C@H]2[C@H]2CN(C)C(=NCc3ccccc3)N21	4.1	·	5.6	-1.0%	·	-1.9	·
COCCNC(=O)NC(=O)COC(=O)Cc1ccc2c(c1)OCCO2	1.4	4.7%	6.0	2.6%[38.3 µM]	8.2	-0.1	-0.7
Cc1ccc(-n2nc3c(=O)n(CC(=O)NCCc4ccco4)nc(C)c3c2C)cc1	10.1	-2.4%	9.4	-0.7%	-1.0	-4.9	-11.2
COc1ccc(Oc2ccc(N/C=C3\CCCC3=O)cc2)cc1	-2.6	9.1%	-1.9	3.1%	-2.7	-2.3	-15.1
N#CCCN1CCN(Cn2c3ccccc3c3ccccc32)CC1	0.0	12.8%	-8.4	1.4%	8.0	0.5	-14.2
CC(Sc1nc2c(cc1C#N)CCCCC2)C(=O)O (stereo not given)	-9.1	20.9%	6.3	-1.7%	-5.3	0.8	-0.3
COc1cc(OC)c(C2N(c3ccc(Cl)c(Cl)c3)C(=O)C3CCCN32)cc1OC (stereo not given)	-1.4	3.6%	8.5	0.6%	-20.4	-3.6	-20.8
Cc1ccc(C)c(S(=O)(=O)N2CCN(C(=O)C3CCN(c4ncnc5sc(C)c(C)c45)CC3)CC2)c1	-13.9	·	-11.9	0.8%	6.7	-3.7	-9.1
O=C(CCC1CCCC1)NCCCNC(=O)CCC1CCCC1	2.1	12.3%	4.2	0.8%	-6.2	1.6	-9.6
COc1ccccc1CC1CC(=O)N(c2ccc([N+](=O)[O-])cc2)C1=O (stereo not given)	-7.0	·	23.7	1.5%	·	-0.9	-12.0
NC(=O)CSc1nnc(Cc2ccc3c(c2)OCO3)n1C1CCCCC1	-2.5	13.3%	-2.5	-5.2%[38.3 µM]	0.9	-2.3	-2.0
CCCSc1nnc(N)s1	4.4	8.9%	-3.7	-0.3%	1.8	-3.4	-29.5
CCN(CC)S(=O)(=O)c1cc(NC(=O)C2Cc3ccccc3C(=O)O2)ccc1C (stereo not given)	-18.7	15.5%	-12.9	-0.6%	-3.1	-0.8	-10.9
O=C(N/N=C/c1cn(-c2ccccc2)nc1-c1cccnc1)c1ccccc1	-15.3	5.3%	-28.2	-1.2%	-13.5	2.9	-6.2
CCOC(=O)C1=C(C)N(CCCC(=O)O)C(=O)NC1c1ccccc1OS(=O)(=O)c1ccc([N+](=O)[O-])cc1 (stereo not given)	5.2	·	1.4	-0.2%	·	8.0	7.3
O=C(C1CC(=O)N(c2ccc3c(c2)OCCO3)C1)N1CCN(c2ccccc2)CC1 (stereo not given)	3.6	4.1%	-3.8	1.1%	?	-6.5	-6.0
Cc1cc(=O)oc(C)c1C(=O)N[C@@H](Cc1ccccc1)C(=O)O	·	13.0%	14.7	-0.1%	-5.0	-1.5	-6.6
O=c1cc[nH]c2ccc([N+](=O)[O-])cc12	3.7	8.7%	-1.1	-0.5%	-0.9	1.2	2.9
CN(C)CCCN(C(=O)c1ccc(S(=O)(=O)N2CCc3ccccc3C2)cc1)c1nc2c(F)cccc2s1	-27.8	4.2%	-20.0	18.3%	4.4	-11.5	-35.4
Cc1ccc(NC(=O)C(C)OC(=O)Cn2[nH]c(=O)c3ccccc3c2=O)cc1 (stereo not given)	8.7	·	3.4	-1.9%	0.6	-4.9	-15.4
CC1Sc2ccc(C(=O)Nc3ncccc3O)cc2NC1=O (stereo not given)	-7.4	·	-14.0	-0.3%	-7.6	0.5	1.8
COc1cccc2cc(C(=O)OC(C)C(=O)c3ccc(C)cc3)c(=O)oc12 (stereo not given)	2.1	4.8%	5.2	0.4%	17.9	2.7	-4.4
COc1ccc(N2CCN(C(=O)c3oc4ccccc4c3NC(=O)Cc3ccc(OC)c(OC)c3)CC2)cc1	-25.5	-4.5%	?	2.6%	0.9	-3.3	-7.0
Cc1[nH]c(=O)c(C#N)c(C)c1Br	4.4	15.9%	5.9	·	13.0	-1.8	10.9
CCCN1CCC(=O)N([C@H](CSc2ccc(C)cc2)c2ccccc2)CC1	-14.5	4.6%	-2.5	6.0%	-18.2	3.0	-17.6
CCN(CC)c1ccc(N=C2C=CC(=O)C=C2NC(C)=O)cc1	-15.6	·	-18.4	-0.5%	·	-1.1	-23.6
CC(=O)c1ccc(OCC(O)CN2CCc3ccccc3C2)cc1 (stereo not given)	3.4	5.6%	10.2	-1.5%	-1.0	0.9	-17.3
C=CCn1c(SCC(=O)Nc2nnc(CC)s2)nnc1-c1cccnc1	-0.4	-0.7%	7.3	-2.1%	-3.4	-1.4	-5.3
CCn1cc(C(=O)OCC(=O)Nc2ccc(S(=O)(=O)N3CCCC3)cc2)c(=O)c2ccc(C)nc21	2.2	8.7%	0.1	4.2%	7.7	-2.3	-3.8
COc1cc(C)c(S(=O)(=O)NCc2ccc3c(c2)OCO3)cc1C	-2.0	8.2%	0.2	-0.3%	3.9	-3.5	-7.6

Source: PubChem
